Source: PubChem (several laboratories)
PrP UTR inh: inhibition of PrP 5' UTR reporter expression | cell-based PrP 5' UTR mRNA reporter, plate reader | inhibition, % (test concentration not listed) | 340,000 compounds, 0.35% hits | AID 488862, 2010;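 active = every replicate at 50% or more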;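 note: 0 = median of the neutral control wells; tested in H4 reporter cells; numbers are from one replicate; inactives centre near -14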
ugtP null kill: growth inhibition of ugtP-null S. aureus, primary screen, RN4220 ugtP deletion, OD600. 16 h; some inactives read as strong as hits. AID 1259309, 2017. growth inhibition, % (concentration not given with the values). 330,000 compounds, 0.54% hits;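 active = z-score under -3 and OD600 up to 0.15 on both plates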;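 note: plate controls were untreated wells for no effect and antibiotic for full effect; wells of about 80 µL received 100 nL stock; the first replicate is given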
Mtb hypoxia inh: PubChem AID 1159583 | M. tuberculosis hypoxia-regulated fluorescent reporter, fluorescence | fluorescence inhibition, % (test concentration not listed) | 300,000 compounds, 0.1% hits;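 active = 35 to 45% if threefold the growth effect, above 45% if 1.5-fold the growth effect; inactive = the rest, general growth blockers included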;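 note: wells of about 50 µL received 100 nL stock; 0% = vehicle wells and 100% = reference inhibitor wells; whole bacteria with a GFP reporter of the hypoxia response; strong numbers were not always called active; many hits fall short of the cut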
BJeLR lethal: MLPCN primary cell-based screen for lethality selective to Ras in HRASV12 cells; 300,000 compounds, 0.17% hits; AID 1554, 2009; BJeLR (HRASV12) viability, CellTiter-Glo ATP luminescence, 48 h; reference of the scale not given here; inhibition, % (no concentration beside the values);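 active = replicate mean above 50%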;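 note: 50 nL library stock added to about 25 µL; numbers are from one replicate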
Autofluor counter: flagged as autofluorescent in microsphere protease counterscreen | compound autofluorescence counterscreen, microsphere flow cytometry; active compounds read high | fluorescence intensity (concentration not given with the values) | 360,000 compounds, 3.1% hits | AID 624483;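 active = at least 3 SD above the mean of all compounds, about 16000 in these data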;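 note: 100 nL of 1 mM stock went into each well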
Sa RN4220 lethal: growth inhibition of S. aureus RN4220, primary screen, OD600; 16 h; inhibition, % (test concentration not listed); 330,000 compounds, 0.33% hits; AID 1259311, 2017;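 active = z-score of -3 or lower and OD600 up to 0.18 on both plates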;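 note: plate controls were untreated cells for no effect and reference antibiotic for full effect; stock transfer was 100 nL into about 80 µL; one replicate is shown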
Mtb hypoxia inh growth: recorded beside Mtb hypoxia inh, whose call it bears; growth inhibition, %; measured here: M. tuberculosis growth (absorbance);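 0% = vehicle and 100% = reference antibiotic; read after six days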
* hit, by the source's call; . = no result given. Rows were taken by chance. Share with any hit: about 4.1%.

SMILES | PrP UTR inh | ugtP null kill | Mtb hypoxia inh | Mtb hypoxia inh growth | BJeLR lethal | Autofluor counter | Sa RN4220 lethal
COc1ccc(N2CCN(C(=O)CCS(=O)(=O)c3ccc(C)cc3)CC2)cc1 | -10.1 | 5.7 | 3.1 | 1.9 | 3.1 | 4129 | 0.3
CCN1C(=O)[C@H]2[C@@H](c3ccc(C)cc3)N3C(=O)N(c4cccc(Br)c4)C(=O)[C@@]3(CC)[C@H]2C1=O | -4.8 | . | . | . | 4.2 | 4009 | .
Cc1ccccc1NC(=O)C[n+]1cc(-c2ccccc2)n2c1CCC2 | -20.0 | 16.3 | 12.9 | -7.9 | 2.4 | 4152 | 1.9
O/N=C1\CCCc2nnc3c(c21)CCCC3 | -9.8 | . | . | . | 0.3 | 3634 | .
Cc1cc(C)c2oc(C(=O)Nc3ccc(S(=O)(=O)Nc4nccs4)cc3)cc(=O)c2c1 | -19.0 | 3.4 | 16.4 | 6.6 | -9.7 | 4809 | -1.4
COc1ccc(C(=O)CSc2nc3c(c(=O)n(C)c(=O)n3C)n2C)cc1 | . | -7.3 | 0.4 | 2.9 | 5.8 | . | -0.9
CC(NC(=O)COc1cccnc1[N+](=O)[O-])c1ccc(Cl)cc1Cl (stereo unspecified) | -10.3 | 4.2 | 4.5 | -1.1 | -6.3 | 3883 | -1.0
C#CCOCCOCCOCCNc1nc(N2CCN(C(=O)C(Cc3ccc(O)cc3)n3cc(C(N)CC(C)C)nn3)CC2)nc(N2CCN(C(=O)C(Cc3cc4ccccc4[nH]3)n3cc(C(N)CC(C)C)nn3)CC2)n1 (stereo unspecified) | . | 3.7 | . | . | . | . | -5.2
Cc1ncc(CN2CCN(C(C)C)C(CCO)C2)s1 (stereo unspecified) | -31.8 | -6.5 | 3.6 | 10.0 | 2.7 | 3694 | 3.4
COCCN1Cc2cccc(C(=O)Nc3cc(OC)ccc3OC)c2C1=O | -13.7 | 1.1 | -4.1 | 0.0 | 3.8 | 2826 | 5.9
C/C(CCc1ccccc1)=N\NC(=O)c1ccccc1 | -11.2 | . | . | . | -2.9 | 2423 | .
CCN1CCN(C(=O)c2cc(S(=O)(=O)Nc3ccc(S(C)(=O)=O)cc3)ccc2Cl)CC1 | -9.6 | -9.1 | -0.8 | 6.3 | 4.6 | 4444 | -2.1
CCn1cc(C=C2C(=O)c3ccccc3C2=O)c2ccccc21 | -26.2 | 3.3 | 3.3 | 5.5 | 4.6 | 3399 | -0.4
CC(=O)N1CCN(Cc2ccc(Cl)nc2)CC1 | -7.1 | 3.8 | 6.0 | 0.8 | 4.7 | 3742 | 0.6
Cc1cccc(OCC(=O)Nc2cccc(O)c2)c1 | -61.1 | 1.8 | 3.0 | 5.3 | -14.8 | 5305 | 1.5
CC(C)C(=O)OCC(=O)Nc1ccc2c(c1)CCC2 | -27.5 | 1.5 | . | . | -6.4 | 4193 | 1.4
CCOc1nc(Nc2ccc(OC)cc2)nc(N2CCOCC2)n1 | 4.3 | 1.9 | 15.5 | -4.9 | 5.1 | 4252 | 1.8
Oc1ccccc1C1=Nc2ccccc2N=C(c2cccs2)C1 | -5.0 | 75.8 | 2.7 | 5.9 | 5.5 | 10221 | -11.5
C=CCOc1ccc(C2NC(=S)NC3=C2CCc2ccccc23)cc1 (stereo unspecified) | -12.9 | 18.0 | 11.3 | 5.0 | -12.5 | . | -1.6
Cc1ccc(CC(=O)N(C)CC(=O)Nc2ccc(N3CCOCC3)cc2)cc1C | -67.8 | 1.3 | 8.0 | 1.0 | -8.3 | . | 0.7
NNC(=O)c1cccc(Cn2cc(Br)c([N+](=O)[O-])n2)c1 | 13.4 | 75.8 | 7.4 | 11.6 | -2.5 | 4199 | 15.1
COC(=O)C(Nc1ccccc1Cl)(c1cc(C)c(O)c(C)c1)C(F)(F)F (stereo unspecified) | 3.9 | 68.8 | 7.3 | 1.0 | 6.3 | 2918 | -30.6
Cc1ccc(C(=O)N/C(=C\c2ccco2)C(=O)NCCCn2ccnc2)cc1C | -10.8 | 1.1 | -3.0 | 3.6 | 0.4 | 8410 | 4.7
Cc1onc(C(=O)N2CCC(Cc3ccccc3)CC2)c1[N+](=O)[O-] | -17.4 | 5.4 | 13.2 | 16.0 | 1.8 | 5894 | 31.6
O=c1ccn(C2OC(COS(=O)(=O)O)C(O)C2O)c(=O)[nH]1 (stereo unspecified) | . | 1.3 | 20.3 | 11.4 | . | . | 5.1
CCOc1ncccc1C(=O)OCC(=O)Nc1ccc(C(C)C)cc1 | -17.1 | 3.0 | -1.5 | -0.1 | -10.9 | 2311 | 1.8
COc1cc(C=NNc2snc(SC)c2C#N)cc(OC)c1OC | . | -1.0 | 4.1 | 11.2 | . | . | 2.1
Cc1cc(C)c(NC(=O)CCCN2CCCC2)c(C)c1 | -18.8 | -6.6 | 6.9 | 7.1 | 15.0 | 4469 | 2.8
Cc1ccc(S(=O)(=O)N(C)c2ccc(OC(=O)c3cccs3)cc2)cc1 | -10.9 | 1.8 | -25.9 | 7.0 | . | 3639 | 2.3
O=[N+]([O-])c1ccc(N2CCCCC2)nc1N1CCCCC1 | -19.4 | 7.5 | 6.4 | 5.0 | -5.0 | 4608 | 5.7
CCC(Sc1nc2ncccc2[nH]1)C(=O)NCCc1ccccc1 (stereo unspecified) | -26.8 | -3.0 | 2.2 | 8.5 | -3.7 | 4905 | -4.9
CC(C)CC(c1nnnn1C1CCCCC1)N1CCN(c2ncccn2)CC1 (stereo unspecified) | -6.4 | -1.4 | 0.9 | 0.5 | 1.0 | 4708 | 3.1
Cc1ccnc(NS(=O)(=O)c2ccc(NC(=O)c3oc4ccc(F)cc4c3C)cc2)n1 | -22.6 | -7.4 | 4.2 | 15.1 | . | 5684 | -7.7
Cc1cc(NC(=O)CSc2nc3c([nH]c4ccccc43)c(=O)n2-c2cccc(C(F)(F)F)c2)no1 | -3.1 | -2.5 | -11.7 | -7.5 | -0.1 | 3508 | 16.5
O=C(CNCc1ccccc1)Nc1cccc(Cl)c1Cl | 2.3 | -6.6 | 3.6 | 3.7 | 6.0 | 3122 | 3.3
O=S(=O)(c1cccc2nsnc12)N1CCN(C/C=C\c2ccccc2)CC1 | 4.7 | 32.3 | -5.8 | 3.2 | 8.6 | 6256 | -2.8
O=C(Cn1c(C(F)(F)F)nc2ccccc21)NCCN1CCCC1 | -18.7 | -5.6 | -0.6 | 8.3 | . | 22679* | -0.2
COc1ccc(C=Nc2nc3ccccc3n2CCN2CCCCC2)cc1OC | . | 2.7 | 9.4 | 5.1 | . | . | 1.7
CCCCn1c(N)c(N(CC(C)C)C(=O)c2ccc([N+](=O)[O-])o2)c(=O)[nH]c1=O | -15.4 | 7.9 | 3.7 | 3.0 | . | 3769 | 23.7
CCOC1OC(C(N)=O)=CC(c2ccc3c(c2)OCO3)C1CCCO (stereo unspecified) | . | -1.8 | 3.4 | -8.0 | . | . | 2.9
CC(C)=CCOc1ccc([C@@H]2COc3c(ccc4c3C=CC(C)(C)O4)C2)c(O)c1 | -10.8 | 51.0 | . | . | 10.2 | 6231 | 7.5
COc1ccc(-c2c(C)nn3c(N4CCN(Cc5ccccc5)CC4)cc(C)nc23)cc1OC | -32.8 | 10.1 | -2.9 | 8.9 | 11.5 | 6083 | 2.9
COc1ccc(S(=O)(=O)N[C@H](C(=O)N2CC[C@@]3(O)CCCC[C@H]3C2)c2ccccc2)cc1 | -13.5 | -3.2 | . | . | -1.8 | 4099 | -0.8
COc1ccc(S(=O)(=O)N(CC(=O)Nc2ccc(S(=O)(=O)N3CCOCC3)cc2)c2ccccc2)cc1 | -14.1 | 5.3 | 8.7 | 9.6 | 7.8 | 2557 | 5.2
Cn1c(SCC(=O)NC2CC2)nnc1-c1ccccc1 | 1.6 | -2.6 | -4.9 | 0.5 | -3.4 | 5983 | -0.5

Part of the list above, field by field:
> CC(=O)N1CCN(Cc2ccc(Cl)nc2)CC1
  PrP UTR inh: -7.1
  ugtP null kill: 3.8
  Mtb hypoxia inh: 6.0
  Mtb hypoxia inh growth: 0.8
  BJeLR lethal: 4.7
  Autofluor counter: 3742
  Sa RN4220 lethal: 0.6
> Cc1cc(C)c(NC(=O)CCCN2CCCC2)c(C)c1
  PrP UTR inh: -18.8
  ugtP null kill: -6.6
  Mtb hypoxia inh: 6.9
  Mtb hypoxia inh growth: 7.1
  BJeLR lethal: 15.0
  Autofluor counter: 4469
  Sa RN4220 lethal: 2.8
> Cc1ccc(C(=O)N/C(=C\c2ccco2)C(=O)NCCCn2ccnc2)cc1C
  PrP UTR inh: -10.8
  ugtP null kill: 1.1
  Mtb hypoxia inh: -3.0
  Mtb hypoxia inh growth: 3.6
  BJeLR lethal: 0.4
  Autofluor counter: 8410
  Sa RN4220 lethal: 4.7
> NNC(=O)c1cccc(Cn2cc(Br)c([N+](=O)[O-])n2)c1
  PrP UTR inh: 13.4
  ugtP null kill: 75.8
  Mtb hypoxia inh: 7.4
  Mtb hypoxia inh growth: 11.6
  BJeLR lethal: -2.5
  Autofluor counter: 4199
  Sa RN4220 lethal: 15.1

Carrying on.
SMILES | PrP UTR inh | ugtP null kill | Mtb hypoxia inh | Mtb hypoxia inh growth | BJeLR lethal | Autofluor counter | Sa RN4220 lethal
O=C(c1ccccc1)c1nc2ccccc2n(CCCn2c(=O)c(C(=O)c3ccccc3)nc3ccccc32)c1=O | -6.1 | -1.6 | 2.5 | 4.8 | 6.1 | 16402* | 0.7
CC(C)C[C@H](NC(=O)c1cc2cc(Cl)ccc2n1C)C(=O)N1CCC[C@H]1C(=O)O | -4.4 | -1.6 | . | . | -2.5 | 5770 | -6.6
CCCC[C@@H]1CCCO[C@@](C(=O)NCc2cc(C)n(C)n2)(C(F)(F)F)C1 | -12.3 | . | . | . | -4.7 | 3016 | .
Fc1ccc(NCc2nnc(SCc3nnc(-c4ccccc4)o3)n2Cc2ccccc2)cc1 | -11.6 | 23.6 | 5.6 | 6.4 | -0.2 | 9823 | 2.4
Cc1cc(C)c(S(=O)(=O)c2ccccc2)c(OC(=O)c2cc(F)c(F)cc2Cl)n1 | -12.7 | 6.2 | . | . | -2.3 | 2306 | -0.8
COCc1[nH]nc2c1C(c1cccc(OC)c1)C(C#N)=C(N)O2 (stereo unspecified) | -15.3 | -0.9 | -0.3 | 14.9 | 9.4 | 10767 | 3.6
CCOC(=O)C1=C(C)NC(=S)NC1C (stereo unspecified) | -12.9 | 7.5 | -1.5 | 10.4 | 2.9 | 2193 | 0.6
Cc1ccc(C2(CC(=O)O)CCOC(C)(C)C2)cc1 (stereo unspecified) | -48.3 | 1.1 | 6.6 | 1.1 | -12.8 | 19797* | 2.0
CN(C)c1nc(C(F)(F)F)cc(=O)[nH]1 | -18.1 | 1.1 | 0.6 | 1.8 | -5.1 | 2094 | -1.4
CC(OC(=O)N1CCN(C(c2ccccc2)c2ccccc2)CC1)C1O[C@@]2(C)CCCC1O2 (stereo partly specified) | . | 5.1 | 5.4 | 13.7 | . | . | -3.5
CSCCC(NC(=O)c1ccccc1Cl)C(=O)N1CC(C)OC(C)C1 (stereo unspecified) | -5.6 | 2.0 | 1.8 | -1.7 | . | 4012 | 2.0
CC(CC(=O)NCc1ccccc1)C1CCCO1 (stereo unspecified) | 5.6 | 6.4 | 8.1 | 1.9 | -7.8 | 19114* | 1.4
CC(=O)Nc1ccc(S(=O)(=O)Nc2ccc(NC(=O)c3ccco3)cc2)cc1 | -18.3 | 6.2 | 7.5 | 5.7 | 3.8 | 6028 | 2.4
Nc1nc(-c2ccc3c(c2)OCCO3)c(CC(=O)O)s1 | -19.3 | 9.0 | 7.8 | -3.9 | 4.4 | 3680 | 2.2
COc1ccccc1NC(=O)COc1ccc(-c2nn(C)c(=O)c3ccccc23)cc1 | -20.0 | 5.2 | 12.9 | 2.9 | 3.0 | 3663 | 3.5
O=C(c1ccc(F)cc1)N1CCC(C(=O)N2CCN(c3ncccn3)CC2)CC1 | -11.6 | 4.6 | 15.6 | 14.0 | . | 4004 | 2.7
Cc1ccc(NC(=O)CN2C(=O)C3CC=C(Cl)CC3C2=O)cc1 (stereo unspecified) | -10.0 | 3.6 | -3.6 | -10.3 | -10.1 | 3920 | 3.1
CCOC(=O)C1=C(N)OC2=C(C(=O)CCC2)C1c1ccccc1OCC (stereo unspecified) | -5.7 | 2.8 | 6.3 | 12.5 | -5.6 | 8020 | 2.5
